Bioassay records as filed in PubChem.
B2AR ag: agonists of human beta-2 adrenergic receptor inducing internalization. P07550. Am2.2-beta2AR cells, FAP receptor internalization, flow cytometry; reference of the scale not given here. response, % (test concentration not listed). 340,000 compounds, 0.43% hits. AID 504454;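 active = response above a set limit, near 3 SD of response in nonfluorescent compounds, cut at about 42% in these data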;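 note: stock transfer was 100 nL into about 11 µL; a reference agonist was the positive control; negative values mostly stem from fluorescent compounds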
Target sequence (P07550 whole entry, looked up): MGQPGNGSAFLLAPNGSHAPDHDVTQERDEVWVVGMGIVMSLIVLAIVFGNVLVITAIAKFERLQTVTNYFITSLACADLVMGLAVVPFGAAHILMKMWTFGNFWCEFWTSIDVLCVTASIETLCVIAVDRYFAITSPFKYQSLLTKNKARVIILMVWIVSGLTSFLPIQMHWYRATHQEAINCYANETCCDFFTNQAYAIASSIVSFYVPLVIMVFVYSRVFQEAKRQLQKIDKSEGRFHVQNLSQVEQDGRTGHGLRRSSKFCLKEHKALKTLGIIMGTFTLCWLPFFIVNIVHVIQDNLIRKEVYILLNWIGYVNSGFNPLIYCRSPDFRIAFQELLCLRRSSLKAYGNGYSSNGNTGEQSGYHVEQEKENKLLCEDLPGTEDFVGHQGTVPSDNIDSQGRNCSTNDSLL
Ecoli rRNA inh: inhibits bacterial ribosomal RNA function over humanized ribosomes | E. coli WT GFP vs humanized-ribosome RFP mutants, fluorescence, 24 h; stronger effect = lower value; DMSO median 0, no signal -100 | GFP signal change (wild-type ribosome), % (test concentration not listed) | 350,000 compounds, 1.6% hits | AID 720706;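 active = significant combined selectivity score with lowered wild-type GFP, culture density cut under 30%, mutant RFP and density less affected; inactive = any of these conditions unmet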; note: one replicate is shown; some compounds called inactive have numbers as strong as hits
Ecoli rRNA inh OD600: also measured in Ecoli rRNA inh; calls as there; OD600 change, %; measured here: OD600 growth;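 optical density of the mix in the first replicate; 0 = DMSO median and -100 = no signal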
Ecoli rRNA inh RFP: also measured in Ecoli rRNA inh; calls as there; RFP signal change, %; measured here: RFP humanized mutant strains;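 first replicate; 0 = DMSO median and -100 = no signal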
* marks the source's active call; other numbers are inactive results; & = joins results of further samples. Not all compounds are listed (hit frequency here may not be typical).

SMILES | B2AR ag | Ecoli rRNA inh | Ecoli rRNA inh OD600 | Ecoli rRNA inh RFP
COc1cc(C=O)ccc1OCc1cn(CC(=O)c2ccc(O)cc2)nn1 | 1 | -15 | -7 | -1.1
CCN(CC)S(=O)(=O)c1ccc(NC(=O)CCN2C(=O)C3CC=CCC3C2=O)cc1 (stereo unspecified) | -2 | -1 | 4 | -0.6
C[C@H](CO)N1C[C@H](C)[C@@H](CN(C)C(=O)Nc2ccc(C(F)(F)F)cc2)Oc2ccc(NC(=O)C3CC3)cc2C1=O | -7 | -60 | -80 | -19
COC(=O)CCCN1C(=O)NC(c2ccc(-c3ccccc3)cc2)C(C(=O)OCc2ccccc2)=C1C (stereo unspecified) | 1 | 2 | 12 | -0.6
C=C1CC2(OC1=O)c1ccccc1CCc1ccccc12 | 6 | 3 | -12 | -2.5
CC[C@]12c3[nH]c4cc(-c5ccco5)ccc4c3CCN1C(=O)[C@@H](CC(=O)NC(C)(C)C)C[C@@H]2C(=O)N1CCN(C(=O)c2ccco2)CC1 | 7 | 15 | 3 | 11
CCOC(=O)C1CCN(CC(=O)Nc2cc(S(=O)(=O)N3CCCCC3)ccc2Cl)CC1 | 0 | -21 | -23 | -6.9
CC1(C)C(=O)Nc2ccccc2N1C(=O)COC(=O)c1ccc(NC(N)=O)cc1 | 8 | -2 | -4 | -0.6
Cc1ccncc1CNC(=O)c1ccccc1 | 0 | 2 | 7 | -2.3
CC[C@]12c3[nH]c4ccc(Cl)cc4c3CCN1C(=O)[C@@H](CC(=O)NCc1ccco1)C[C@@H]2C(=O)N1CCN(C(=O)c2ccco2)CC1 | 0 | -2 | 1 | 3.0
Cc1noc(C)c1S(=O)(=O)Nc1ccc2c(c1)C(=O)N([C@H](C)CO)C[C@H](C)[C@@H](CN(C)C(=O)Nc1ccc(C(F)(F)F)cc1)O2 | -4 | -3&14 | -3&5 | 3.6&4.9
O=C(O)C1CCN(Cc2oc(CO)cc(=O)c2O)C1 (stereo unspecified) | -2 | -4 | 9 | 8.3
CC(NC(=O)c1ccccc1)C(=O)Nc1ccccc1 (stereo unspecified) | 0 | -1 | -2 | -2.5
COc1cc(C(=O)OCC(=O)N2CCNC2=O)cc(Cl)c1OC | -2 | 1 | 0 | -1.0
CN(C)S(=O)(=O)c1ccc(NC(=O)COc2cccc3c2OC(C)(C)C3)cc1 | 5 | -9 | -19 | -0.5
CC1Cc2cc(/C(O)=C3/C(=O)C(=O)N(CCCn4ccnc4)C3c3ccc([N+](=O)[O-])cc3)ccc2O1 (stereo unspecified) | 11 | 1 | 7 | -0.8
N=c1nc2n(cc1F)C1OC(CO)C(O)C1O2 (stereo unspecified) | 1 | 12 | 20 | -5.2
Cc1ccc2c(CSc3nc4ccccc4c(=O)n3CCCO)cc(=O)oc2c1 | 0 | 3 | 5 | 0.9
O=C(C[C@@H]1C/C=C\C[C@@H](Cc2ccc(F)cc2)C(=O)OC[C@H]2CCCN2C1=O)N[C@H](CO)Cc1ccccc1 | 3 | -18* | -14* | 6.2*
Oc1ccc(C[C@H]2CNC(=S)N2CC2CCCN2C[C@H](Cc2ccc(O)cc2)N2C[C@H](Cc3ccccc3)N(CC3CCCCC3)C2=S)cc1 (stereo partly specified) | 11 | 14 | 8 | 14
CN1C[C@@H]2[C@@H]3C(=O)N(Cc4ccccc4)C(=O)[C@@H]3[C@](C)(C1=O)N2C(=O)c1ccc(Br)cc1 | -9 | 0 | -9 | 3.6
O=C(Cc1cccs1)N[C@@H]1c2ccccc2CC[C@H]1OCc1ccccc1 | -10 | 5 | 15 | -4.3
Cc1ccc(NC(=O)c2ncn(CC(=O)N3CCN(c4ccccn4)CC3)n2)cc1C | -4 | 3 | 9 | 0.9
CCCN1C(=O)/C(=C\c2nc3ccccc3c(=O)[nH]2)c2ccccc21 | 8 | 18 | 19 | 1.3
CC(C)CN1Cc2ccccc2Oc2cc(Br)ccc2S1(=O)=O | -10 | -2 | -21 | -9.7
CCN(C[C@H]1N[C@@](C)(C(=O)OC)[C@H]2C(=O)N(C)C(=O)[C@@H]12)C(=O)c1ccccc1 | -7 | 7 | 17 | 6.2
CCOC(=O)C1=C(COC(=O)c2ccc(Br)c(S(=O)(=O)N3CCOCC3)c2)NC(=O)NC1C (stereo unspecified) | 8 | 0 | -10 | 1.1
O=C(CN1CCN(C2CCS(=O)(=O)C2)CC1)N1N=C(c2ccc(Cl)cc2)CC1c1ccco1 (stereo unspecified) | 4 | -2 | -4 | 2.9
O=C1Nc2ccc(Br)cc2/C1=C/C(=O)c1ccccc1 | 18 | -11 | -24 | 7.5
COC(=O)[C@@]1(Cc2ccccc2)[C@H]2C(=O)N(C)C(=O)[C@H]2[C@H]2CN=C(SCC(=O)c3ccccc3)N21 | -8 | 5 | 9 | 4.1
COc1ccccc1NS(=O)(=O)c1cccc(C(=O)N/N=C/c2ccc([N+](=O)[O-])o2)c1 | 17 | 3 | 7 | -0.5
C#CCOCCOCCOCCNc1nc(N2CCN(C(=O)Cn3cc(CCO)nn3)CC2)nc(N2CCN(C(=O)[C@H](CCCCN)n3cc(CC(C)O)nn3)CC2)n1 (stereo partly specified) | 2 | -1 | -13 | 0.7
Cc1ccc2c(C)c(C)c(=O)n(C)c2c1 | -3 | -13 | -14 | -1.8
COc1ccc2[nH]c3c(c2c1)CCN1C(=O)C(CC(=O)NCCCn2ccnc2)C[C@H](C(=O)N(C(C)C)C(C)C)[C@@]31C (stereo partly specified) | -2 | 8 | 5 | 0.6
CCOC(=O)C1=CN(Cc2ccco2)S(=O)(=O)N(C)C1c1ccc2ccccc2c1 (stereo unspecified) | -9 | 1 | -3 | -1.6
O=S(OCCN1CCOCC1)C(c1ccccc1)c1ccccc1 (stereo unspecified) | -9 | 11 | -7 | -2.2
O=C(Nc1cccc(C(=O)N2CCCCC2)c1)C1CC1 | 0 | 4 | 7 | -6.7
CC(C)CSc1ccc(S(=O)(=O)NCC(=O)O)cc1[N+](=O)[O-] | -11 | -7 | 1 | -2.5
CCN(C(=O)CSc1nnc(-c2ccco2)n1Cc1ccccc1)C1CCS(=O)(=O)C1 (stereo unspecified) | -7 | 7 | 12 | -1.4
CN1CCN(C(=O)c2ccc(NS(=O)(=O)c3cccc([N+](=O)[O-])c3)cc2)CC1 | -3 | -3 | 5 | -6.8

An excerpt from above in order of SMILES length, low to high.
SMILES | B2AR ag | Ecoli rRNA inh | Ecoli rRNA inh OD600 | Ecoli rRNA inh RFP
CCN(C(=O)CSc1nnc(-c2ccco2)n1Cc1ccccc1)C1CCS(=O)(=O)C1 (stereo unspecified) | -7 | 7 | 12 | -1.4
CN1CCN(C(=O)c2ccc(NS(=O)(=O)c3cccc([N+](=O)[O-])c3)cc2)CC1 | -3 | -3 | 5 | -6.8
COc1ccccc1NS(=O)(=O)c1cccc(C(=O)N/N=C/c2ccc([N+](=O)[O-])o2)c1 | 17 | 3 | 7 | -0.5
COc1ccc2[nH]c3c(c2c1)CCN1C(=O)C(CC(=O)NCCCn2ccnc2)C[C@H](C(=O)N(C(C)C)C(C)C)[C@@]31C (stereo partly specified) | -2 | 8 | 5 | 0.6
C#CCOCCOCCOCCNc1nc(N2CCN(C(=O)Cn3cc(CCO)nn3)CC2)nc(N2CCN(C(=O)[C@H](CCCCN)n3cc(CC(C)O)nn3)CC2)n1 (stereo partly specified) | 2 | -1 | -13 | 0.7

New compounds follow.
SMILES | B2AR ag | Ecoli rRNA inh | Ecoli rRNA inh OD600 | Ecoli rRNA inh RFP
COc1ccc(C(=O)Nc2cccc(/C=C(/CCC(=O)O)c3nc4ccccc4s3)c2)cc1 | 11 | -40 | -37 | -0.6
O=C(CN1C(=O)NC2(CCCCC2)C1=O)N1CCN(S(=O)(=O)c2ccc(F)c(F)c2F)CC1 | -3 | 0 | 11 | 1.8
OC(c1ccccn1)C(O)c1ccccn1 (stereo unspecified) | 2 | 11 | 11 | -2.7
O=C(CCNC(=O)c1ccc([N+](=O)[O-])cc1)NC1CCCCC1 | 2 | 11 | 7 | -2.4
CC(OC(=O)CNC(=O)c1ccc(F)cc1)C(=O)Nc1ccc(S(=O)(=O)N2CCOCC2)cc1 (stereo unspecified) | -2 | 4 | 7 | 0.5
CN(Cc1ccccc1)C(=O)c1ccc(NC(=O)Cc2ccc(NC(=O)C3CCN(C(=O)C4CCCCC4)CC3)cc2)cc1 | 12 | -1 | 2 | -0.6
OCCn1cnc2c(SCc3ccccc3)ncnc21 | 4 | -4 | 1 | 5.3
O=C1C(=O)c2ccccc2C(O)=C1CC=C(Cl)Cl | -1 | -24 | -64 | -1.4
O=S(=O)(Oc1ccccc1-c1ccccc1)c1ccccc1 | 7 | -37 | -63 | -11
COc1ccccc1C(CNC(=O)c1ccc(C)c(S(=O)(=O)N2CCCCC2)c1)N1CCCC1 (stereo unspecified) | 1 | 6 | 8 | 1.8

Copied from the list:
In B2AR ag, COc1ccc(C(=O)Nc2cccc(/C=C(/CCC(=O)O)c3nc4ccccc4s3)c2)cc1 has 11
In Ecoli rRNA inh RFP, O=C(CCNC(=O)c1ccc([N+](=O)[O-])cc1)NC1CCCCC1 has -2.4
In B2AR ag, CN(Cc1ccccc1)C(=O)c1ccc(NC(=O)Cc2ccc(NC(=O)C3CCN(C(=O)C4CCCCC4)CC3)cc2)cc1 has 12

Other records follow:
SMILES | B2AR ag | Ecoli rRNA inh | Ecoli rRNA inh OD600 | Ecoli rRNA inh RFP
O=C(COC(=O)c1ccc[nH]c1=O)Nc1cc(S(=O)(=O)N2CCCCCC2)ccc1Cl | -2 | 7 | 10 | -0.5
Cc1cn(CC(=O)NCCNc2ccc([N+](=O)[O-])cn2)c(=O)[nH]c1=O | 3 | 13 | 17 | -0.7
COc1cccc(NC(=O)CN(C)C(=O)c2cccc(NS(=O)(=O)c3ccc(Br)cc3)c2)c1 | 13 | -6 | -19 | 7.3
COc1ccccc1C1CC(=O)Oc2c(C(C)C)ccc(C)c21 (stereo unspecified) | -2 | -28 | -34 | -8.0
O=C(O)COc1ccc(Cl)cc1C1CCCCC1 | 9 | -2 | 0 | -0.2
CC(=O)c1cccc(S(=O)(=O)Nc2cc(C(F)(F)F)ccc2N2CCOCC2)c1 | 4 | -2 | 11 | -1.9
O=C(Nc1c[nH]c(=O)[nH]c1=O)OCc1ccccc1 | 7 | 12 | 9 | 4.8
O=C(CCSCCC(=O)NN=Cc1ccc(F)cc1)NN=Cc1ccc(F)cc1 | -11 | 12 | -2 | 3.3
COc1ccc(CNC(=O)C(C)OC(=O)Cn2cnc3c2c(=O)n(C)c(=O)n3C)cc1 (stereo unspecified) | 1 | 8 | 4 | -1.4
Nc1nc(SCc2ccccn2)c2ncn(C3CCCC3)c2n1 | -19 | -8 | -2 | -0.7
CC[C@]12c3[nH]c4ccc(Cl)cc4c3CCN1C(=O)[C@@H](CC(=O)NCCc1ccccn1)C[C@@H]2C(=O)N1CCN(C(=O)C2CC2)CC1 | -4 | 14 | 4 | 3.2
O=C(C=Cc1ccccc1)c1c[nH]c2ccccc2c1=O | -5 | 17 | 6 | 5.4
CSC1(SC2=NCCN2)SC2(NCCN2)S1 | -7 | 5 | 8 | -1.1
O=C(NNC(=O)c1n[nH]c2ccccc12)c1ccccc1 | -2 | 10 | 16 | 1.4
CN(C)S(=O)(=O)c1cccc(NC(=O)c2cccc(S(=O)(=O)N3CCc4ccccc43)c2)c1 | 11 | -11 | -15 | 0.6
S=c1ncc2[nH]c(=S)[nH]c2[nH]1 | 9 | 5 | 2 | -0.8
Cc1cccc(NC(=O)CN2CCN(C(=O)c3ccc(-c4nc5ccccc5s4)o3)CC2)c1C | 24 | 5 | 10 | 2.1
CNc1nc(Cl)nc2ncn(C)c12 | -7 | 22 | 14 | 3.0
CCOC(=O)C1(C)Oc2ccccc2C(c2ccc(OC)cc2)=C1C(=O)OC (stereo unspecified) | 4 | -13 | -13 | 4.6
CCCCCC(=O)Nc1cc(S(=O)(=O)O)cc2cc(S(=O)(=O)O)cc(O)c12 | -12 | 11 | 15 | -1.9

The closing 3 entries of the section before come first, to join the parts:
SMILES | B2AR ag | Ecoli rRNA inh | Ecoli rRNA inh OD600 | Ecoli rRNA inh RFP
CNc1nc(Cl)nc2ncn(C)c12 | -7 | 22 | 14 | 3.0
CCOC(=O)C1(C)Oc2ccccc2C(c2ccc(OC)cc2)=C1C(=O)OC (stereo unspecified) | 4 | -13 | -13 | 4.6
CCCCCC(=O)Nc1cc(S(=O)(=O)O)cc2cc(S(=O)(=O)O)cc(O)c12 | -12 | 11 | 15 | -1.9
Cn1c(=O)oc2ccccc2c1=O | -5 | 19 | -5 | 4.0
Cn1cccc1C(=O)NCc1ccccn1 | 3 | 0 | 4 | -1.3
COCCN(CC(=O)Nc1cccc(C)c1C)C(=O)C1CCN(S(=O)(=O)c2ccccc2)CC1 | -6 | 7 | 10 | 3.2
O=S1(=O)CCOC(CO)CN1Cc1ccc(Cl)c(Cl)c1 (stereo unspecified) | -5 | 8 | 12 | 5.2
O=P1(O)Cc2ccccc2-c2ccccc21 | -12 | 16 | 17 | -1.2
